High-throughput results as filed in PubChem BioAssay.
BJeLR viability: BJeLR cell viability reduction; BJeLR fibroblasts viability, CellTiterGlo ATP luminescence, 48 h; HRASV12, hTERT and SV40 LT/ST transformed; viability loss activity score, % (no concentration beside the values); 30,000 compounds, 0.64% hits; AID 2275; in the data active = viability loss activity score above about 50%; about a fifth of its hits are not listed in these tables;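 note: higher score means fewer live cells and less ATP luminescence; stock transfer was 50 or 100 nL into about 30 µL; 0% = vehicle wells and 100% = a reference killing control; one replicate is shown; the record names a cut of 85%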
A1 inh: blocks A1 activity; MEF A1-2A-BIM cells, caspase-Glo luminescence, 3 h; percent of clofoctol signal, DMSO as zero; caspase activation, % (test concentration not listed); 21,000 compounds, 0.51% hits;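 active = most replicate scores above 10, or exactly half above 10 with mean activity above 10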;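 note: effector caspase 3 and 7 activity cleaving a DEVD luciferin substrate; 50 nL library stock added to about 30 µL; numbers are from one replicate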
Starred values were filed as active, the others as inactive; / = no result given. Only part of the results is shown (hit frequency here may not be typical).

Values run as follows: BJeLR viability | A1 inh
- C[C@H]1CN([C@@H](C)CO)C(=O)c2cc(NS(=O)(=O)c3ccccc3)ccc2O[C@H]1CN(C)S(=O)(=O)c1ccc(Cl)cc1
  2.9 | -0.3
- NC(=S)Nc1ccccc1OC(F)(F)F
  -5.3 | /
- Cc1ccc(/C=C2/SC(=O)NC2=S)o1
  4.9 | /
- COc1ccc2c(OC)c3ccoc3nc2c1OC
  -5.3 | 0.1
- NC(=O)C1CCN(C(=O)c2n[nH]c(=O)c3ccccc23)CC1
  -0.6 | /
- COC(=O)C1=CO[C@@H](O[C@@H]2O[C@H](CO)[C@@H](O)[C@H](O)[C@H]2O)[C@H]2[C@@H]1[C@H](OC(=O)/C=C\c1ccc(O)cc1)C[C@]2(C)OC(C)=O
  2.0 | 1.7
- C[C@H]1CN([C@@H](C)CO)C(=O)c2cc(NS(=O)(=O)c3ccccc3)ccc2O[C@H]1CN(C)C(=O)Nc1ccccc1
  -3.7 | -0.4
- C[C@@H]1CN([C@H](C)CO)C(=O)c2cc(NC(=O)Nc3ccc(F)cc3)ccc2O[C@H]1CN(C)Cc1ccccc1
  -2.2 | 0.1
- Cc1ccc(S(=O)(=O)Nc2cccc3c2O[C@H](CN(C)C(=O)Nc2ccc(F)cc2)[C@@H](C)CN([C@H](C)CO)C3=O)cc1
  -5.9 | /
- C[C@H]1CN([C@@H](C)CO)C(=O)c2cc(NS(=O)(=O)c3ccccc3)ccc2O[C@@H]1CN(C)Cc1ccc(Cl)c(Cl)c1
  -3.1 | -0.4
- C[C@@H]1CN([C@@H](C)CO)C(=O)c2cccc(NC(=O)Nc3cccc4ccccc34)c2O[C@@H]1CN(C)Cc1ccc2c(c1)OCO2
  2.8 | /
- C[C@@H]1CN([C@H](C)CO)C(=O)c2cc(NC(=O)CCN3CCOCC3)ccc2O[C@@H]1CN(C)Cc1ccc(Cl)c(Cl)c1
  2.1 | 0.6
- CN(C(=O)c1cc2c(s1)-c1ccc(Cl)cc1SC2)c1cccc(Cl)c1
  6.9 | 0.0
- CCC(=O)NC(Nc1cccnc1Cl)(C(F)(F)F)C(F)(F)F
  2.1 | 0.2
- C[C@@H]1CN([C@@H](C)CO)C(=O)c2cccc(NC(=O)C3CC3)c2O[C@@H]1CN(C)S(=O)(=O)c1cn(C)cn1
  -8.4 | /
- C[C@H](CO)N1C[C@H](C)[C@@H](CN(C)Cc2ccc(-c3ccccc3)cc2)Oc2c(NC(=O)C3CC3)cccc2C1=O
  0.8 | /
- COC(=O)c1c(NC(C)=O)sc2c1CCC2
  -0.2 | 0.5
- C[C@H]1CN([C@@H](C)CO)C(=O)c2cc(NC(=O)C3CCCCC3)ccc2O[C@H]1CN(C)C(=O)Nc1ccc(F)cc1
  1.3 | -0.3
- COc1ccc(NC2=Nc3ccccc3CCC2)cc1
  -0.7 | -3.1
- C[C@H]1CN([C@@H](C)CO)C(=O)c2cccc(NS(=O)(=O)c3ccc(Cl)cc3)c2O[C@H]1CN(C)Cc1ccc2c(c1)OCO2
  -0.3 | /

Single entries from above.
`C[C@@H]1CN([C@@H](C)CO)C(=O)c2cccc(NC(=O)C3CC3)c2O[C@@H]1CN(C)S(=O)(=O)c1cn(C)cn1` in BJeLR viability has -8.4
`CN(C(=O)c1cc2c(s1)-c1ccc(Cl)cc1SC2)c1cccc(Cl)c1` in BJeLR viability has 6.9

(cont.)
Values run as follows: BJeLR viability | A1 inh
- Cc1cc(C(=O)Nc2cccc3c2O[C@H](CN(C)C(=O)Nc2c(C)noc2C)[C@@H](C)CN([C@@H](C)CO)C3=O)n(C)n1
  3.2 | /
- COc1ccc(C(=O)Nc2ccc(-c3cn4ccccc4n3)cc2)cc1
  8.0 | 31.1*
- Cc1ccc(CN(C(=O)COc2c(F)c(F)c(F)c(F)c2F)C2CCS(=O)(=O)C2)o1 (centres undefined)
  -2.4 | 0.8
- C[C@H]1CN([C@@H](C)CO)C(=O)c2cccc(NS(=O)(=O)c3ccc(Cl)cc3)c2O[C@@H]1CN(C)CC1CCCCC1
  -0.9 | /
- Cc1noc(C)c1NC(=O)Nc1ccc2c(c1)C(=O)N([C@H](C)CO)C[C@H](C)[C@H](CN(C)Cc1ccc(Cl)c(Cl)c1)O2
  3.7 | 0.0
- C[C@@H]1CN([C@@H](C)CO)C(=O)c2cc(NC(=O)C3CCCCC3)ccc2O[C@H]1CN(C)Cc1ccc(Oc2ccccc2)cc1
  -0.2 | 0.3
- CC(C)NC(=O)N(C)C[C@@H]1Oc2ccc(NC(=O)Nc3ccccc3)cc2C(=O)N([C@H](C)CO)C[C@H]1C
  1.1 | 0.9
- O=C(Cn1cnc2c(oc3ccccc32)c1=O)NCc1ccccc1
  -4.8 | 0.1
- COc1cccc(-n2c(=O)c3c(C)c(C)sc3n(CC(=O)NCCC3=CCCCC3)c2=O)c1
  -2.6 | /
- COc1cc(OC)cc(-c2nc(N)c3c(C)c(-c4ccc(OC)c(OC)c4)sc3n2)c1
  0.9 | 10.1*
- C[C@@H]1CN([C@@H](C)CO)C(=O)c2cccc(NC(=O)c3ccncc3)c2O[C@H]1CN(C)C(=O)Nc1ccccc1
  -3.0 | /
- CC(C)NC(=O)N(C)C[C@H]1Oc2ccc(NC(=O)Cc3ccccc3)cc2C(=O)N([C@@H](C)CO)C[C@@H]1C
  1.3 | 0.1
- C[C@H]1CN([C@@H](C)CO)C(=O)c2cccc(NC(=O)c3ccncc3)c2O[C@H]1CN(C)Cc1ccc(C(=O)O)cc1
  7.7 | /
- Cc1noc(C)c1NC(=O)N(C)C[C@H]1Oc2ccc(NC(=O)Cc3cn(C)c4ccccc34)cc2C(=O)N([C@@H](C)CO)C[C@@H]1C
  2.1 | -0.5
- COc1ccc(/C=C2/SC(=O)N(CC(=O)NCCO)C2=O)cc1OC
  -1.6 | -0.5
- Cc1noc(C)c1NC(=O)N(C)C[C@H]1Oc2c(NC(=O)c3ccncc3)cccc2C(=O)N([C@H](C)CO)C[C@@H]1C
  -2.1 | /
- NC(N)=NC(N)=Nc1cc(-c2cccs2)[nH]n1
  -7.7 | 0.5
- O=C(CSc1nc(-c2ccccc2)cc(=O)[nH]1)c1c[nH]c2ccccc12
  -1.5 | 0.9
- C[C@@H]1CN([C@H](C)CO)C(=O)c2cc(NS(C)(=O)=O)ccc2O[C@@H]1CN(C)S(=O)(=O)c1ccc(F)cc1
  -0.8 | 0.7
- COC(=O)CNC(=O)c1cc(-c2ccc(F)cc2)nc2ccccc12
  3.7 | 0.0
- COc1ccc(Br)cc1S(=O)(=O)N1CCN(Cc2ccc3c(c2)OCO3)CC1
  -1.0 | /
- C=C1C(=O)O[C@H]2C[C@@H](C)[C@@H]3CCC(=O)[C@@]3(C)C[C@H]12
  2.1 | -0.1
- C[C@@H]1CN([C@H](C)CO)C(=O)c2cccc(NC(=O)Nc3ccc(C(F)(F)F)cc3)c2O[C@H]1CN(C)C(=O)NC1CCCCC1
  3.5 | /
- O=C(c1cccc(Cl)c1)N(Cc1ccccc1)Cc1ccccc1
  0.6 | -0.5
- CCc1ccc(NC(=O)CSc2nncn3c2cc2occc23)cc1
  9.8 | -0.8
- Cc1nc(C)c(-c2ccnc(C34CC5CC(CC(C5)C3)C4)n2)o1
  -1.1 | 0.0
- CC(=O)OC[C@]12[C@H](OC(C)=O)[C@H](OC(C)=O)[C@@H]3[C@@H](OC(C)=O)[C@@]14O[C@@]3(C)COC(=O)c1cnccc1CC[C@H](C)C(=O)O[C@@]4(C)[C@@H](O)[C@H](O)[C@@H]2OC(C)=O
  35.0 | 0.4
- Cc1ccc(S(=O)(=O)N(C)C[C@H]2Oc3ccc(NS(=O)(=O)c4ccc(Cl)cc4)cc3C(=O)N([C@H](C)CO)C[C@H]2C)cc1
  -2.4 | -0.4
- C[C@]12CC[C@@H]3c4ccc(OS(=O)(=O)O)cc4CC[C@H]3[C@@H]1CCC2=O
  -2.0 | 0.1
- C[C@@H]1CN([C@@H](C)CO)C(=O)c2cccc(N(C)C)c2O[C@@H]1CN(C)C(=O)Nc1ccc(C(F)(F)F)cc1
  -3.6 | /
- c1c2c(cc3sc(N4CCOCC4)nc13)OCCO2
  43.4 | /
- O=C(Nc1cccnc1)c1cc2ccccc2oc1=O
  -3.3 | -6.2
- COc1ccc(-n2nnc3c(SCC(=O)N4CCc5ccccc54)ncnc32)cc1
  3.2 | -1.2
- C[C@@H]1CN([C@H](C)CO)C(=O)c2cccc(NC(=O)C3CCOCC3)c2O[C@@H]1CN(C)Cc1ccc(-c2ccccc2)cc1
  0.1 | /
- O=C(Nc1ccc2c(c1)OCCO2)Nc1cccs1
  -1.0 | -6.8
- Cc1ccc(S(=O)(=O)N2CCCCCC2)cc1C
  0.8 | -0.1
- C[C@H](CO)N1C[C@H](C)[C@@H](CN(C)S(=O)(=O)c2cn(C)cn2)Oc2ccc(NS(=O)(=O)c3cn(C)cn3)cc2C1=O
  -2.2 | -0.2
- CCC(=O)Nc1ccccc1-c1ccccc1NC(=O)CC
  7.7 | 0.9
- COc1ccc(C2C(C(=O)NCCC3=CCCCC3)c3ccccc3C(=O)N2C)cc1 (centres undefined)
  -2.1 | /
- CC(C)(C)NC[C@H](O)COc1cccc2c1CCCC2=O
  -1.1 | 1.1
- Cc1ccc(C(=O)N(C)Cc2ccccc2)cc1
  -1.1 | 0.7
- COC(=O)[C@H]1CC[C@H](OC(C)=O)[C@]2(C)CC[C@@H](C(C)C)[C@@H](OC(=O)/C=C/c3ccccc3)C12 (some centres undefined)
  -7.5 | 0.1
- Cc1ccc(S(=O)(=O)N(C)C[C@@H]2Oc3ccc(NC(=O)c4ccncc4)cc3C(=O)N([C@@H](C)CO)C[C@H]2C)cc1
  -4.0 | 0.5
- C[C@@H]1CN([C@H](C)CO)C(=O)c2cc(NC(=O)C3CC3)ccc2O[C@H]1CN(C)S(C)(=O)=O
  0.1 | -0.8
- C[C@@H]1CN([C@H](C)CO)C(=O)c2cc(NS(C)(=O)=O)ccc2O[C@H]1CN(C)C(=O)NC1CCCCC1
  4.1 | 1.0
- COc1c(O)cc2c(c1O)C(=O)OC(C)C2O (centres undefined)
  25.3 | -0.1
- O=C1N(c2cccc(Cl)c2)C(=Nc2cccc(Cl)c2)SC12CC2
  40.4 | 0.9
- NNC(=O)c1cc2ccccc2[nH]1
  2.4 | -0.2
- COc1ccc(NC(=O)Nc2ccc3c(c2)C(=O)N([C@@H](C)CO)C[C@H](C)[C@@H](CN(C)S(=O)(=O)c2cn(C)cn2)O3)cc1
  3.3 | 1.3
- C[C@H](CO)N1C[C@H](C)[C@@H](CN(C)C)Oc2ccc(NC(=O)c3ccncc3)cc2C1=O
  -1.2 | -0.3
- CC12CCC(c3c(C(=O)O)nn(-c4ccccc4)c31)C2(C)C (centres undefined)
  -2.7 | 1.2
- C[C@H]1CN([C@@H](C)CO)C(=O)c2cccc(NS(=O)(=O)c3cccs3)c2O[C@H]1CN(C)S(C)(=O)=O
  -0.8 | /
- CC1(C)CC[C@@]2(C(=O)O[C@@H]3O[C@H](CO)[C@@H](O)[C@H](O)[C@H]3O)C(C1)C1=CCC3[C@@]4(C)CC[C@@H](O[C@@H]5O[C@H](C(=O)O)[C@@H](O[C@@H]6OC[C@@H](O)[C@H](O)[C@H]6O)[C@H](O)[C@H]5O)C(C)(C)C4CC[C@@]3(C)[C@]1(C)C[C@H]2O (some centres undefined)
  -0.1 | 0.1
- C[C@@H]1CN([C@H](C)CO)C(=O)c2cc(NC(=O)Nc3ccccc3)ccc2O[C@H]1CN(C)S(=O)(=O)c1cn(C)cn1
  -1.3 | -0.2
- C[C@@H]1CN([C@@H](C)CO)C(=O)c2cc(NC(=O)Nc3ccc4c(c3)OCO4)ccc2O[C@@H]1CN(C)C(=O)Nc1ccccc1
  2.9 | -0.4
- CCOC(=O)c1cc(C#N)c(Sc2ccc(C)cc2)nc1C(F)(F)F
  -3.7 | -0.4
- C[C@H]1CN([C@@H](C)CO)C(=O)c2cc(NC(=O)Nc3ccc4c(c3)OCO4)ccc2O[C@H]1CN(C)S(=O)(=O)c1cccs1
  0.7 | -0.4
- C[C@@H]1CN([C@@H](C)CO)C(=O)c2cccc(NC(=O)Nc3ccc4c(c3)OCO4)c2O[C@H]1CN(C)C(=O)Nc1ccc(F)cc1
  -2.5 | /
- Cn1c(=O)cc(OCC(=O)NC2CCN(Cc3ccccc3)CC2)c2ccccc21
  1.0 | /
- C[C@@H]1CN([C@@H](C)CO)C(=O)c2cc(NC(=O)Cc3ccccc3)ccc2O[C@H]1CN(C)Cc1ccncc1
  -3.3 | 0.0

Given as tab-separated lines: four of the compounds above.
structure	BJeLR viability	A1 inh
CC(C)(C)NC[C@H](O)COc1cccc2c1CCCC2=O	-1.1	1.1
CC1(C)CC[C@@]2(C(=O)O[C@@H]3O[C@H](CO)[C@@H](O)[C@H](O)[C@H]3O)C(C1)C1=CCC3[C@@]4(C)CC[C@@H](O[C@@H]5O[C@H](C(=O)O)[C@@H](O[C@@H]6OC[C@@H](O)[C@H](O)[C@H]6O)[C@H](O)[C@H]5O)C(C)(C)C4CC[C@@]3(C)[C@]1(C)C[C@H]2O (some centres undefined)	-0.1	0.1
C[C@@H]1CN([C@@H](C)CO)C(=O)c2cc(NC(=O)C3CCCCC3)ccc2O[C@H]1CN(C)Cc1ccc(Oc2ccccc2)cc1	-0.2	0.3
C[C@@H]1CN([C@H](C)CO)C(=O)c2cc(NC(=O)Nc3ccc(F)cc3)ccc2O[C@H]1CN(C)Cc1ccccc1	-2.2	0.1

Following part
Values run as follows: BJeLR viability | A1 inh
- C[C@@H]1CN([C@H](C)CO)C(=O)c2cc(NC(=O)CCN3CCOCC3)ccc2O[C@@H]1CN(C)S(=O)(=O)c1ccc(Cl)cc1
  11.2 | 0.1
- CSC(N)=Nc1c(Cl)cccc1Cl
  -1.3 | 0.0
- O=C(CN1C(=O)/C(=C/c2ccccc2F)Sc2ccccc21)N1CCN(c2ccc(F)cc2)CC1
  -3.2 | 0.5
- C[C@@H]1CN([C@@H](C)CO)C(=O)c2cc(NC(=O)Cc3ccccc3)ccc2O[C@H]1CN(C)Cc1ccc(Cl)c(Cl)c1
  -3.9 | 0.5
